Bioassay records: PubChem, several laboratories
Calb FLC: C. albicans growth inhibition with fluconazole, primary screen, CaCi-2 strain, Alamar Blue fluorescence | growth inhibition, % (concentration not given with the values) | actives 0.57% (n = 300,000) | AID 1979, 2009 | C. albicans CaCi-2 (fluconazole-resistant clinical isolate) + fluconazole, 48 h;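 active = most replicates above 75%; inconclusive = exactly half above 75%; inactive = most below 75%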;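 also: all wells also contain fluconazole at 8 µg/ml as a sub-toxic cotreatment; 0% = median of DMSO wells and 100% = median of geldanamycin control wells; wells of about 8 µL received 7.5 nL stock; the first replicate is given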
A1 inh: caspase 3/7 activation in MEF A1-2A-BIM cells, primary screen, A1 inhibitor project, cell-based, luminescence, HTS; caspase activation, % (no concentration beside the values); Caspase-Glo 3/7 luminescence, 3 h; percent of clofoctol response, vehicle zero; actives 0.066% (n = 330,000);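 active = over half of replicate activation scores above 10%, or exactly half above 10 with the replicate mean above 10; inconclusive = replicate mean below 10 yet half the replicates above 10; inactive = over half of replicates below 10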;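 also: wells of about 30 µL received 50 nL stock; many hits fall short of the cut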
Beta apoptosis: inhibitors of cytokine-induced beta cell apoptosis, primary screen, luminescence. INS-1E cytokine-induced death, ATP luminescence, 48 h; percent of positive-control rescue, neutral wells zero. protection from apoptosis, % (concentration not given with the values). actives 0.8% (n = 300,000). AID 435005, 2010;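 active = all replicates at 75% or more, or half of them and the mean; inconclusive = half reach 75% but not the mean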;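 also: 0% = cytokine-treated negative control wells and 100% = positive control rescue; higher means more ATP so stronger rescue from cytokine killing; wells of about 40 µL received 100 nL stock; the first replicate is given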
UCH37 DUB inh: inhibitors of human UCH37 deubiquitinase, primary screen, biochemical, Ub-AMC cleavage, fluorescence | Ubiquitin carboxyl-terminal hydrolase isozyme L5 (Homo sapiens), Q9Y5K5 | purified proteasome/UCH37 | inhibition, % (test concentration not listed) | actives 0.33% (n = 330,000);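 active = mean of two replicates above 20%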;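 also: 0% = compound-free wells with enzyme and 100% = wells lacking proteasome; stock transfer was 100 nL into about 20 µL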
Target sequence (Q9Y5K5 whole entry, looked up): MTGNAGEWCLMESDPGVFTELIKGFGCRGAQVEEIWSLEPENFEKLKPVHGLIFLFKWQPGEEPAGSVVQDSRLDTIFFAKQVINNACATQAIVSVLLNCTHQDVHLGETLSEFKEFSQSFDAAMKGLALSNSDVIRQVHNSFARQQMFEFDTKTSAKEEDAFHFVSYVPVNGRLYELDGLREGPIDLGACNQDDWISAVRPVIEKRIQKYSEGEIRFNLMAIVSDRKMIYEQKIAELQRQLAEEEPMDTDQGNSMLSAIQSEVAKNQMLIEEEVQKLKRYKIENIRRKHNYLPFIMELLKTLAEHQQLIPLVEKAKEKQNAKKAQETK
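Test system – human UCH37 enzyme supplied as purified proteasome complex · Incubation – 30 min preincubation with enzyme, 25 min cleavage at room temperature · Detection – AMC fluorescence from Ub-AMC cleavage, excitation 355 nm, emission 460 nm · Benchmarks – no-proteasome wells (full inhibition) and compound-free wells (no inhibition)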
RanGTP-Imp inh: inhibitors of RanGTP-importin-beta interaction, primary screen, biochemical, FRET, CFP-Ran, YFP-importin-beta, homogeneous; Ran GTPase (GTP-bound) - importin-beta complex; cell-free CFP-Ran/YFP-importin-beta FRET ratio; inhibition, % (test concentration not listed); actives 1.1% (n = 300,000); AID 2216, 2009;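 active = most replicates above 15%; inconclusive = exactly half above 15%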;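 also: 0% = DMSO wells and 100% = Ran loaded with GDP instead of GTP; wells of about 40 µL received 100 nL stock; the first replicate is given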
T cruzi inh: inhibitors of intracellular T. cruzi growth, primary screen, luminescence, NIH3T3 host cells | T. cruzi beta-gal in NIH3T3, 90 h | inhibition, % (concentration not given with the values) | actives 1.4% (n = 300,000) | AID 1885, 2009;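 active = mean inhibition across valid replicates above about 55%, limit read from the data; inconclusive = mean below that limit but half or more replicates reach it; inactive = mean below it, under half of replicates reach it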;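 also: signal also drops with host cell toxicity which is not excluded here; 0% = plate median of DMSO wells and 100% = zero luminescence signal; higher percent means less beta-gal luminescence so fewer parasites; stock transfer was 50 nL into about 50 µL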
B2AR ag: beta2AR agonists driving receptor internalization, primary screen, cell-based, FAP fluorogen, flow cytometry; actives 0.43% (n = 340,000); response, % (concentration not given with the values); Beta-2 adrenergic receptor (Homo sapiens), P07550; Am2.2-beta2AR cells; reference of the scale not given here; AID 504454, 2011;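 active = response above a set limit, near 3 SD of response in nonfluorescent compounds, cut at about 42% in these data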;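 also: stock transfer was 100 nL into about 11 µL; a reference agonist was the positive control; negative values mostly stem from fluorescent compounds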
Target sequence (P07550 whole entry, looked up): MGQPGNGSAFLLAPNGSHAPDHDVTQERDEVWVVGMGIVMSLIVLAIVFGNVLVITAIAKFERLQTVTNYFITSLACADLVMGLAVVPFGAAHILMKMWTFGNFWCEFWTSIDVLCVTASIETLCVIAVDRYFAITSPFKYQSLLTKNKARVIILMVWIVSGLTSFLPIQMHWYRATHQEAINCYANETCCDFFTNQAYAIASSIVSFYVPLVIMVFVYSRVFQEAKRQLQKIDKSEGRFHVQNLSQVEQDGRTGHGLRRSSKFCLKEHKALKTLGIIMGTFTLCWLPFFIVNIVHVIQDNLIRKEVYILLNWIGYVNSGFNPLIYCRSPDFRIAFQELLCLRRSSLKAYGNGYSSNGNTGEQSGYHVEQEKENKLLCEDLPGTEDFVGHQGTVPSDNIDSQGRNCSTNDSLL
LANA-H2A inh: blockers of LANA interaction with H2A/H2B – biochemical, FP readout, HTS, primary screen; actives 0.6% (n = 320,000); inhibition, % (no concentration beside the values); Protein LANA1 (Human herpesvirus 8 type P (isolate GK18)), Q9QR71; cell-free LANA-H2A/H2B peptide, fluorescence polarization; AID 2629, 2010; in the data active = inhibition mostly above about 10%, no sharp cut-off; inactive = mostly below about 6.7%;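 also: stock transfer was 7.5 nL into about 10 µL; 0% = median of vehicle wells and 100% = median of positive control wells; one replicate is shown; the record names a cut of 25% in any replicate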
* marks the source's active call; other numbers are inactive results; u = inconclusive; x = no result given. No enrichment for hits. Share with any hit: about 4.3%.

SMILES	Calb FLC	A1 inh	Beta apoptosis	UCH37 DUB inh	RanGTP-Imp inh	T cruzi inh	B2AR ag	LANA-H2A inh
O=C(COC(=O)c1cccc(S(=O)(=O)N2CCCCC2)c1)NC1CCCc2ccccc21 (configuration not stated)	1	0.8	1	3.4	-1.2	-1	3	-1.5
O=C(OCC(=O)N1CCCC1)c1ccc(O)cc1	4	1.4	-1	x	2.1	-8	-8	-2.0
COc1cc(-c2cc(=O)c3c(O)c(OC)c(OC)c(O)c3o2)ccc1O	11	-0.3	19	7.2	-1.0	-3	-10	-2.8
O=C(Nc1ccccc1)c1ccc(NCc2cccnc2)c(S(=O)(=O)N2CCOCC2)c1	15	0.8	-10	3.0	5.0	15	-9	-1.3
CN(Cc1ccc(C(C)(C)C)cc1)C(=O)c1ccc2c(=O)n3c(nc2c1)CCC3	8	0.0	-2	-1.8	-1.2	14	-1	-3.6
CC(C)OP(=O)(OC(C)C)C(Nc1ccccc1)c1cccc2c1OCO2 (configuration not stated)	-11	0.4	-1	0.8	-0.9	7	3	-7.0
O=C(NCc1n[nH]c(=S)n1-c1ccccc1Cl)c1ccc(S(=O)(=O)N2CCCCC2)cc1	1	-0.2	4	4.5	-4.5	-7	0	5.6
Cc1cc(C(=O)COC(=O)c2cccs2)c(C)n1-c1c(C)n(C)n(-c2ccccc2)c1=O	-1	0.1	0	3.0	-1.6	2	-4	1.0
CCCc1cc(=O)n2[nH]c(SCc3ccccc3)nc2n1	-9	0.3	0	4.6	2.5	2	3	4.5
C=CCN(C(=O)c1cccc(S(=O)(=O)N2CCN(C)CC2)c1)c1nc(-c2ccccc2)cs1	30	0.0	2	4.5	-5.0	16	5	-1.0
O=c1oc(-c2ccco2)nc2c1cnn2-c1ccccc1	24	0.2	-9	-1.6	-1.0	-11	14	-1.1
O=C(C[n+]1cc(-c2ccc(Cl)cc2)n2c1CCC2)N1c2ccccc2Sc2ccccc21	107*	0.0	13	11	0.1	46	1	2.7
CC(NC(=O)COC(=O)Cc1ccsc1)c1ccccc1 (configuration not stated)	0	-0.7	-5	4.2	11	-7	2	1.2
COC(=O)C(Cc1ccc(O)cc1)NC(=O)C(CC(=O)OC(C)(C)C)NC(=O)OC(C)(C)C (configuration not stated)	12	-0.1	4	x	0.9	-20	1	-7.2
COc1ccc(NC(=O)c2cc(-c3ccncc3)nc3ccc(Br)cc23)cc1OC	-7	0.7	24	-1.6	-0.9	35	97*	-9.7
CC(=O)NC1CCC(C(=O)O)(c2ccccc2)C1 (configuration not stated)	1	1.2	1	-3.3	7.8	-19	2	-2.7
COC(=O)/C=C/c1ccc2c(c1)OCO2	-6	-5.4	4	-29	1.7	-7	7	-2.2
Cc1cc2oc(=O)cc(CN(C)Cc3ccccc3F)c2cc1Cl	-5	-0.8	0	6.6	3.4	7	-16	0.8
Cc1nc2cc(-c3cccc(F)c3)nn2c(C)c1CCC(=O)N1CCN(c2ccccn2)CC1	2	-0.6	x	-62	-1.8	21	-14	2.2
COc1ccccc1N1CC(C(=O)Nc2ccc(S(=O)(=O)N3CCCC3)cc2)CC1=O (configuration not stated)	x	-0.3	-3	1.8	x	x	5	1.0
COc1ccc(OC)c(NC(=O)CCNS(=O)(=O)c2ccc3[nH]c(=O)oc3c2)c1	-3	0.2	-7	0.8	-0.1	-19	8	1.2
Cc1ccc(S(=O)(=O)N(CC(=O)NCc2ccco2)C2CCCCC2)cc1	-9	0.3	-5	1.5	2.0	10	-1	-1.1
COC(=O)C(CCSC)NC(=O)C(NC(=O)C1CCC(C)CC1)C(C)C (configuration not stated)	-5	-1.1	-8	2.7	1.7	x	9	-3.1
CCOc1cc(/C=N/NC(=O)CN(CCc2ccccc2)S(=O)(=O)c2ccc(NC(C)=O)cc2)ccc1O	-2	0.8	1	x	1.4	22	9	0.7
O=C(c1cc2cc([N+](=O)[O-])ccc2oc1=O)n1cccn1	-2	-0.1	-2	6.1	-2.0	-8	0	-3.7
Cc1cc(NC(=O)COC(=O)COc2ccc3c(c2)CCC3)no1	4	-0.7	-1	6.7	6.2	-13	-1	-4.0
C/C(=N\NC(=O)c1ccc(F)cc1)c1cccc(NC(=O)c2cccc(F)c2)c1	23	-0.2	3	x	-0.8	2	5	-3.2
CCOC(=O)C1CCCN(S(=O)(=O)c2ccc(F)c(C(=O)Nc3ccc(F)c(F)c3)c2)C1 (configuration not stated)	1	0.4	-2	2.0	1.2	-12	13	-2.4
Nc1nc(-c2ccccc2)nc(-c2ccccc2O)n1	45	-0.2	3	1.6	-1.5	-2	12	-12
NC(=O)c1ccnc2c(O)cccc12	x	0.7	-18	-0.8	x	x	-12	4.2
COc1cc(NC(=O)COc2c(C)cc(C)cc2[N+](=O)[O-])c(OC)cc1Cl	37	0.2	4	6.5	1.4	18	-2	0.8
CC(O)c1nc2ccc(Cc3ccc4nc(C(C)O)[nH]c4c3)cc2[nH]1 (configuration not stated)	4	0.0	-6	-0.2	6.3	-9	-1	5.2
COCCOC(=O)c1[nH]c2c(c1C)C(=O)CC(c1ccc(N(C)C)cc1)C2 (configuration not stated)	-11	2.4	8	4.7	-15	18	2	-1.0
COc1cccc(-c2ccc3ncnc(NCc4cccs4)c3c2)c1	x	-2.0	9	2.8	x	x	9	3.6
CC(C)(C)c1ccc(CN2N=Nc3ccccc3S2(=O)=O)cc1	1	0.4	15	5.7	2.4	43	7	-0.4
Cc1nc(-c2ccc(NC(=O)C(C)(C)C)cc2)c(-c2ccccc2)o1	-5	0.5	3	-6.1	u	-4	-7	1.1
Cc1nn(-c2ccccc2)c(C)c1-c1nnc(C(F)(F)F)o1	3	-0.3	x	2.1	-2.8	8	-3	0.1
CC1(C)CC(=O)C2=C(C1)Nc1cc3c(cc1C2c1ccc2c(c1)OCO2)OCO3 (configuration not stated)	21	0.4	-7	-152	-2.0	19	-2	-5.3
CCCCOc1c(C(=O)Nc2ccccc2)nnn1-c1ccccc1	-10	0.2	6	-4.7	u	25	1	2.7
COc1cc(OC)cc(C(=O)NC(=S)Nc2ccc3[nH]c(=O)[nH]c3c2)c1	-2	0.1	-5	2.9	0.6	-8	5	-1.6
COc1cc2c(cc1OC)C(C)N(CC(=O)Nc1ccc(C)c(S(=O)(=O)N3CCOCC3)c1)CC2 (configuration not stated)	-7	-2.0	0	-8.0	7.1	-4	0	-2.6
O=C(COC(=O)C1CCC1)Nc1ccc(Oc2ccccc2)cc1	10	-0.7	-5	2.4	1.2	-2	-26	1.3
CC(=O)c1cccc(S(=O)(=O)N2CCn3cccc3C2C)c1 (configuration not stated)	x	-0.7	3	-2.2	x	x	5	0.5
CCOc1cc(NCc2ccccc2)c2ncn(C(C)C)c2c1	x	-0.5	-5	-1.1	x	x	-3	2.0
Cn1c(CNC(=O)CCNC(=O)c2cccc(Cl)c2)cc(=O)n(C)c1=O	x	0.0	-5	0.7	0.3	-1	-8	-0.6
COCCN1CCN(C(=O)C2CCC(=O)N(CCc3cccc(F)c3)C2)CC1 (configuration not stated)	2	-0.1	-24	0.1	-2.5	-12	4	6.7
COc1ccc(C)cc1NC(=O)CSc1nnc2ccc(-c3cccnc3)nn12	3	0.9	x	0.8	8.3	-13	-8	2.5
C/C(=N\NC(=O)CSCc1ccccc1Cl)c1cc(O)ccc1O	95*	-0.8	-8	x	4.1	46	4	0.0
Cc1nnc(SCC(=O)NC2CC2)n1CCc1ccccc1	6	-1.1	-4	3.8	2.2	-1	0	-4.8
CCCNC(=O)c1ccc2c(c1)ncn2-c1ccccc1OC	-1	-1.3	6	-4.1	2.3	1	8	0.9
Cc1ccc(NC(=O)c2ccc(-c3nn(C)c(=O)c4ccccc34)cc2)cc1	26	-0.3	-3	-0.1	-2.5	8	16	1.2
COc1ccc2cc(C(=O)NCc3ccccc3)c(=Nc3ccc(C(=O)O)cc3)oc2c1	41	1.5	10	7.7	0.2	3	3	7.6
O=c1c2c([nH]c3ccccc13)CCC2	-1	0.3	-5	1.9	0.3	4	-1	1.9
CC1(C)CC(=O)C/C(=N\NC(=O)Cc2ccccc2)C1	-7	1.0	1	x	26*	-4	18	3.0
CSc1nncc(/C(C)=N\Nc2ccccc2)n1	3	-0.3	7	x	8.5	-1	-6	-0.5
Cc1cnc(=O)[nH]c1SCc1cccc(C(F)(F)F)c1	-3	1.1	-6	1.5	0.5	3	5	-1.9
C=CCn1c(C)cc(C(=O)CSc2n[nH]c(N)n2)c1C	-4	0.5	-6	4.1	3.8	-13	2	-1.3
COc1cc(OC)cc(-n2nnnc2SCC(=O)Nc2nc3c(s2)CCCC3)c1	1	-0.9	-4	-5.0	-5.0	13	-9	-2.8
CC(C)OCC(O)CN1CCN(CC(O)COc2ccc3c(c2)OCO3)CC1 (configuration not stated)	3	0.3	x	-0.6	0.1	-4	8	1.1
Cc1ccc(CNC(=O)CNC(=O)c2ccc(C(C)(C)C)cc2)n1C	x	-1.2	1	4.5	x	x	-4	-0.2

Later entries
SMILES	Calb FLC	A1 inh	Beta apoptosis	UCH37 DUB inh	RanGTP-Imp inh	T cruzi inh	B2AR ag	LANA-H2A inh
CC(=O)c1ccc(-n2c(CCC(=O)O)ccc2-c2ccc(C)cc2)cc1	14	-0.4	x	7.3	-0.1	0	3	-4.6
Cc1nc(C)n(CC(=O)N2CCCC(C(=O)c3cccc4ccccc34)C2)n1 (configuration not stated)	-11	-0.3	-5	1.8	7.1	13	3	-2.2
COc1ccc(NC(=O)C(OC(=O)c2ccc([N+](=O)[O-])o2)c2ccccc2)cc1Cl (configuration not stated)	3	-0.7	-3	1.2	-1.0	-3	9	-0.1
COc1c(C)cc(Br)cc1C(=O)NC(=S)Nc1ccc(Cl)c(C(=O)O)c1	37	1.0	-3	2.5	-2.1	-2	-1	2.2
COc1ccc(C(=O)CC(=O)C(=O)Nc2cccc([N+](=O)[O-])c2C)cc1	-12	-0.4	-1	7.3	6.9	-14	11	-1.3
CSc1ccc(S(=O)(=O)N2CCC(C(=O)NCc3ccncc3)CC2)cc1	-6	-0.6	-1	4.9	-2.0	-2	-27	-4.6
CC(=O)Nc1ccc(Nc2nnc(-c3ccc(O)cc3)c3ccccc23)cc1	-7	-0.2	-1	6.1	10	7	-4	-1.2
Nc1nonc1C(=O)OCC(=O)c1ccc(Cl)cc1	-9	0.8	-4	1.0	-0.4	-23	-2	x

In a second layout: entries from further up
Compound | Calb FLC | A1 inh | Beta apoptosis | UCH37 DUB inh | RanGTP-Imp inh | T cruzi inh | B2AR ag | LANA-H2A inh
Cc1cnc(=O)[nH]c1SCc1cccc(C(F)(F)F)c1 | -3 | 1.1 | -6 | 1.5 | 0.5 | 3 | 5 | -1.9
C=CCn1c(C)cc(C(=O)CSc2n[nH]c(N)n2)c1C | -4 | 0.5 | -6 | 4.1 | 3.8 | -13 | 2 | -1.3
